# Calb biofilm kill: clotrimazole potentiators killing C. albicans biofilm, primary screen, 4-compound mixtures | C. albicans biofilm persisters + clotrimazole, fluorescence viability; primary screen in compound mixtures of four per well | inhibition, % at 7.6 µM | hit rate 0.02% among 120,000 | AID 1242, 2008;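 active = inhibition above 30.3% in the primary screen of four-compound pools, then above 30% when the compound was retested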;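 note: compounds exposed to preformed 24 h biofilms for 48 h; the number belongs to the whole pool; some results filed as inactive read as strong as hits; inactives centre near 12; 0% = biofilm with clotrimazole alone and 100% = kill control; retested singly at about 60 µM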
#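 Incubation: 24 h biofilm formation, then 48 h compound exposure, 37 °C | Material: C. albicans biofilms | Buffer or medium: RPMI/MOPS medium, pH 7.0 | Measured by: 2-h Alamar Blue fluorescence, 535/590 nm excitation/emission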
# * hit, by the source's call.
structure	Calb biofilm kill
COc1ccc(C)cc1N(C(=O)c1ccc(F)cc1)c1nc2ccccc2s1	6
CC1CC(C)CN(C(=O)Cn2cc(C=O)c3ccccc32)C1 (centres undefined)	11
CC(=O)Nc1ccc(NC(=O)C(C)Sc2nnc(-c3cccs3)o2)cc1 (centres undefined)	19
N#CCc1ccc(Oc2ccc([N+](=O)[O-])cn2)cc1	8
O=C(O)CN1CCCCC1	21
Cc1cc(=O)n2ccsc2n1	11
O=C(/C=C/N1CCN(Cc2ccccc2)CC1)C(F)(F)F	4
Cn1nnc2c[n+](CC(=O)c3ccc(Cl)cc3)cc(Br)c21	11
CCOC(=O)c1sc2nc(CC(C)C)c3c(c2c1N)CCC3	5
COc1ccccc1C1CC(=O)NC(C)=C1C(=O)OC(C)C (centres undefined)	6
CN(C)S(=O)(=O)c1ccc(N2CCCC2)c(C(=O)N2CCN(c3ccc([N+](=O)[O-])cc3)CC2)c1	-17
CCOC(=O)C1CCN(C(=O)NS(=O)(=O)c2ccc(C)cc2)CC1	14
O=C1c2cccc3cccc(c23)C(=O)N1CC1CCN(CC(O)COCc2ccc3c(c2)OCO3)CC1 (centres undefined)	-14
Cc1nc(-c2cccs2)ccc1C(=O)O	14
CC(C)[C@H](NC(=O)c1ccccc1)C(=O)N1CCc2ccccc21	22
Cc1cc2c(C)cc(=O)[nH]c2cc1NC(=O)CCl	4
O=C(Nc1cccc(O)c1)c1ccc([N+](=O)[O-])cc1Cl	20
COc1ccc(-n2c(SCC3OCCO3)nc3c(sc(=S)n3-c3ccccc3)c2=O)cc1OC	19
CCOC(=O)Cc1nn(Cc2ccccc2)c(=O)c2ccccc12	28
O=c1oc2ccccc2c(NCCO)c1[N+](=O)[O-]	8
Cc1ccccc1-c1nc(CSc2nc3c(c(=O)[nH]2)CCC3)c(C)o1	8
Nc1nc2n(n1)C(=O)CC(c1ccccc1)N2 (centres undefined)	9
CC(O)C(NC=C1C(=O)OC(C)(C)OC1=O)C(=O)O (centres undefined)	18
O=C(COc1ccccc1)NCC(=O)N/N=C/c1ccccc1	4
Cn1c(N)c(C(=O)COC(=O)CSc2ccc3ccccc3c2)c(=O)n(C)c1=O	12
CC(OC(=O)CCc1c[nH]c2ccccc12)C(=O)c1ccccc1 (centres undefined)	5
O=C(CN1CCN(S(=O)(=O)c2ccc(Br)cc2)CC1)N/N=C/c1ccc(Br)s1	10
CCSCc1nnc(SCC(=O)Nc2cccc(C(C)=O)c2)n1C	16
Fc1ccc(NC(=S)N2CCCCC2)cc1	1
Cc1ccc(NC(=O)COC(=O)Cc2ccsc2)c(C)c1	12
O=C(CSc1ccc(Br)cc1)N1CCN(C(=O)c2ccco2)CC1	3
O=C(NC(=S)Nc1ccccc1F)c1ccc(Br)o1	10
Cc1cc(C)n(S(=O)(=O)c2ccccc2)n1	27
Cc1c(C(=O)OCC(=O)NCc2ccc3c(c2)OCO3)cccc1[N+](=O)[O-]	11
CC1CCN(S(=O)(=O)c2ccc3c(c2)N(CC(=O)NCc2cccnc2)C(=O)CS3)CC1	-2
C#CCNC(=O)C1=C[C@H](c2cn(C(C)=O)c3ccccc23)[C@@H](CCCO)[C@H](OCC)O1	20
CCc1ccc(CN(C)C(=O)c2cc(COc3c(F)cccc3F)on2)cc1	4
Cc1cccc(C)c1NC(=S)N(Cc1ccccc1)Cc1cccs1	14
O=C(CSc1cccc[n+]1[O-])Nc1ccccc1Oc1ccccc1	19
CCOC(=O)n1n[n+]([O-])c2ccccc21	11
NC(=O)c1cc(-c2ccccc2)nc2ccc(Br)cc12	9
O=C(COC(=O)Cn1cnc2ccccc2c1=O)NCc1ccccc1Cl	10
O=C(CSc1nc(-c2ccccc2Cl)ns1)Nc1ccc2c(c1)OCO2	6
O=C(N/N=C/c1ccccc1C(=O)O)C(=O)N1CCCCC1	21
Cc1ccc(SCc2nn(C)c(Cl)c2C=O)cc1	6
NC(=O)c1ccsc1NC(=O)COC(=O)CSc1ccc(Cl)cc1	-2
O=C(COC(=O)CCCOc1ccc(Cl)cc1Cl)NCc1ccc(F)cc1	21
COCCNC(=O)CCCn1c(=O)c2cc(OC)c(OC)cc2n(CC(=O)Nc2ccccc2OC)c1=O	-7
CC(Oc1ccccc1)C(=O)NNC(=O)c1cccs1 (centres undefined)	16
O=C(CSc1nnc(-c2ccc3c(c2)OCO3)o1)Nc1ncc(Cl)cc1Cl	24

# Other compounds follow.
structure	Calb biofilm kill
O=C(N/N=C/c1ccccc1O)C1(O)c2ccccc2-c2ccccc21	23
Cc1sc2ncnc(OCC(=O)NC(C)C(C)C)c2c1C (centres undefined)	5
Cc1cc(C)c(S(=O)(=O)c2ccccc2Cl)c(Cl)n1	16
COC(=O)Cn1c(C(F)(F)F)nc2ccccc21	18
Cc1ccc(-c2cc(C(=O)NN3CCOCC3)c3cc(Br)ccc3n2)o1	12
COc1ccccc1-c1cc(SC)c(C#N)c(=O)o1	14
CSc1ncc(CN2CCN(C(C)C)C(CCO)C2)cn1 (centres undefined)	24
O=c1o[nH]c(-c2ccccc2)c1C=Nc1ccc(Cl)cc1	6
O=C(Nc1ccc(Cl)c(Cl)c1)Nc1nnc(CC2=CCCCC2)s1	15
Cc1ccc(CCCOC(=O)CN2CCCCC2)cc1	14
COc1ccc(C(=O)NNC(=O)CCn2nnc(-c3ccc(Cl)cc3)n2)cc1OC	21
CC(=O)c1ccc(-c2ccc([C@H]3[C@@H]4C=CCC[C@@]4(C)C(=O)N3Cc3ccccc3)c(F)c2)cc1	22
O=C(CNC(=O)c1ccccc1)N/N=C/c1ccc([N+](=O)[O-])s1	12
CC(=O)Nc1cccc(C(=O)OCC(=O)NC(C)c2ccc(F)cc2)c1 (centres undefined)	0
Clc1ccc(-c2csc(N/N=C/c3cccnc3)n2)c(Cl)c1	18
O=S(=O)(NCc1ccccc1F)NCc1ccccc1F	12
CNc1nc(-c2ccc3c(c2)CCN3C(=O)c2ccccc2F)c(C)s1	10
O=S(=O)(c1ccc2c(c1)OCCO2)N1CCN(c2nc(-c3cccnc3)nc3ccccc23)CC1	14
N#CCSc1nnc(COc2ccccc2)n1-c1ccccc1	1
CSCCC(NC(=O)c1ccc(Br)cc1)C(=O)O (centres undefined)	2
O=[N+]([O-])c1cccc(/C=N/Nc2nc(NCc3ccccc3)nc(N3CCOCC3)n2)c1	7
c1ccc(Cc2nnc3n2N=C(c2ccccc2)CS3)cc1	6
COc1ccccc1N(C)S(=O)(=O)c1ccc(C(=O)OCC(=O)Nc2ccccc2F)cc1	3
CC(C(=O)NN=C(c1ccccc1)c1ccccc1)N1CCCC1 (centres undefined)	8
O=C(CCCn1c(=O)[nH]c2cc(Cl)ccc2c1=O)NCCCN1CCN(c2ccc(F)cc2)CC1	18

# Some of the entries above, set out differently.
> CCOC(=O)Cc1nn(Cc2ccccc2)c(=O)c2ccccc12
- Calb biofilm kill = 28
> O=C(CSc1cccc[n+]1[O-])Nc1ccccc1Oc1ccccc1
- Calb biofilm kill = 19
> CCSCc1nnc(SCC(=O)Nc2cccc(C(C)=O)c2)n1C
- Calb biofilm kill = 16
> COc1ccccc1C1CC(=O)NC(C)=C1C(=O)OC(C)C (centres undefined)
- Calb biofilm kill = 6

# Continued:
structure	Calb biofilm kill
Cc1cc(C)cc(SCc2noc(C(=O)NCCCN3CCOCC3)c2C(=O)NCCCN2CCOCC2)c1	16
Cc1cc(N2CCOCC2)n2ncc(-c3ccc(Cl)cc3)c2n1	14
COC(=O)c1ccsc1NC(=O)c1ccccc1	9
O=C(O)/C=C/C(=O)NC1CCCCC1	9
CCS(=O)(=O)N1CCN(c2ccc(C(=O)NC3C4CC5CC(C4)CC3C5)cc2[N+](=O)[O-])CC1 (centres undefined)	21
COC(=O)C1=C(C)Nc2nnnn2C1c1cccnc1 (centres undefined)	9
O=C(NCCc1ccccc1F)C1CCCN1S(=O)(=O)c1ccc2ccccc2c1 (centres undefined)	9
CC1=NN(c2ccccc2)C(=O)/C1=C/c1c(O)n(-c2ccc(F)c(Cl)c2)[nH]c1=O	22
CCCN(CCC)C(=O)Cn1c(=O)c2ccccc2n2c(=S)sc(-c3ccccc3C)c12	14
C/C(=N\N1CCN(c2ccccc2)CC1)c1cccs1	25
COC(=O)C(C)(C)ONC(=O)Nc1ccccc1Br	16
CC(=O)c1cccc(NC(=S)NC(=O)c2ccccc2Br)c1	19
CCCCNC(=O)COc1ccccc1[N+](=O)[O-]	18
CN1c2ccc(Cl)cc2C(=O)NC1c1ccc([N+](=O)[O-])s1 (centres undefined)	13
NS(=O)(=O)c1ccc(NC(=S)NCC2CCCO2)cc1 (centres undefined)	15
Cc1cnc(CN(C)Cc2c(C(=O)N3CCc4ccccc4C3)nc3ccc(Cl)cn23)[nH]1	20
Cc1c(Cl)cnc(NC(=O)COC(=O)c2ccc([N+](=O)[O-])s2)c1Cl	9
CC(C)CNC(=O)COC(=O)c1n[nH]c2ccccc12	10
O=C(NC1(C(F)(F)F)NC(=O)N(C2CCCCC2)C1=O)C1CC1 (centres undefined)	11
COc1ccc(/C=C2\SC(=S)N(CC(=O)N3CCN(C)CC3)C2=O)cc1	3
O=C1NC(c2ccc(-c3ccccc3[N+](=O)[O-])o2)C(C(=O)c2ccc(Cl)cc2)C(O)(C(F)(F)F)N1 (centres undefined)	13
CCCCNS(=O)(=O)c1ccc2nc(SCC(=O)Nc3cc(C)cc(C)c3)[nH]c2c1	8
CN1CCN(c2ccc(S(=O)(=O)N3CCCCC3)cc2NC(=O)Cc2ccc(Cl)cc2)CC1	8
O=C(O)/C=C/c1cnc[nH]1	19
O=C(CSc1ccccn1)Nc1ccc2c(c1)OCCO2	11
O=C(CSc1ccc(Cl)cc1)NC(=O)NCc1ccco1	0
O=S(=O)(CCSc1ccc(C(F)(F)F)cn1)c1ccccc1	3
CN(C)S(=O)(=O)c1cccc(C(=O)Nc2ccc(S(=O)(=O)N3CCCC3)cc2)c1	10
COC(=O)c1sc2nc(SCC(=O)N(C)c3ccccc3)n(N)c(=O)c2c1C	10
Cc1ccc(C(=O)NCCSc2c(C)[nH]c3ccccc23)cc1[N+](=O)[O-]	17
O=C(CSc1nnc(-c2ccncc2)n1Cc1ccco1)Nc1nccs1	-3
Cc1ccccc1OCC(=O)N/N=C/c1sc(=O)n(Cc2cccc(C(=O)O)c2)c1Cl	15
CCNc1ccc(Br)cc(C(=O)/C=C/c2c(Cl)cccc2Cl)c1=O	18
CCOCCCNC(=O)C(c1ccc(OC)cc1)N(Cc1cccs1)C(=O)c1ccccn1 (centres undefined)	17
CCCCCCCCc1nc(=S)[nH][nH]1	-1
O=C(O)CC(CC(=O)Nc1ccccc1C(=O)O)c1ccccc1 (centres undefined)	20
Cc1ccc(NC(=O)NCc2ccccn2)cc1	12
CSc1nc(O)c(/C=C2\C=Nc3ccccc32)[nH]1	-2
Cc1onc(-c2c(Cl)cccc2Cl)c1C(=O)ONC(=O)c1cc(C(F)(F)F)cc(C(F)(F)F)c1	4
O=[N+]([O-])c1ccc2nc(-[n+]3c(-c4ccccc4)cc(-c4ccccc4)cc3-c3ccccc3)[nH]c2c1	19
CCOC(=O)N1CCC(NC(=O)c2ccc(N3CCC4(CC3)OCCO4)c([N+](=O)[O-])c2)CC1	14
CC(Sc1ccsc1[N+](=O)[O-])C(=O)NCc1ccco1 (centres undefined)	5
COc1ccc(CCN2C(=S)N(C)C(=O)C2CC(=O)Nc2ccc(OC)cc2)cc1 (centres undefined)	-2
CCOCCCNC(=O)C(c1ccccc1)N(Cc1cccs1)C(=O)c1ccccc1O (centres undefined)	11
CCO/N=C(\C)c1c(O)c(CC)c(-c2ccccc2)n(-c2ccccc2)c1=O	9
O=C(O)c1ccc2cccc(O)c2n1	17
COC(=O)c1ccc(NC(=S)NC(=O)c2c(Cl)cnn2C)cc1	10
CCOC(=O)C1NN=C(C(=O)c2ccccc2)C1c1ccc(OC)cc1 (centres undefined)	17
CCC(CC)C(=O)Nc1cccc(SC)c1	15
O=C(NC1CCCC1)C(c1cc2c(cc1[N+](=O)[O-])OCO2)N1CCCC1 (centres undefined)	11

# Next compounds.
structure	Calb biofilm kill
COc1ccc(-c2ccccc2)cc1NCc1ccccc1C	1
CCCC(=O)c1ccc(N2CCCCC2)c(F)c1	14
O=C(Cn1c(=O)oc2cc(S(=O)(=O)N3CCCC3)ccc21)Nc1ccccc1Br	22
Cc1ccc(/C=N/n2c(-c3cccc(Cl)c3)n[nH]c2=S)o1	13
Cc1ccc(NC(=O)CSc2nc3[nH]ncc3c(=O)[nH]2)cc1	16
Cc1cc(N2CCOCC2)ccc1/C=C1\NC(=O)N(Cc2ccccc2)C1=O	11
Cc1c(O)c(=O)ccn1Cc1ccccc1	12
C/C(=C\c1ccccc1)C1NC(=O)c2c(sc3c2CCCC3)N1 (centres undefined)	19
CCOC(=O)c1c(NC(=O)CN2CCOCC2)sc2c1CCCC2	13
COc1ccc(C(=O)N/C(=C/c2cccnc2)C(=O)N2CCOCC2)cc1OC	17
Cc1cc2c(OCC(O)CN3CCCCC3)cccc2[nH]1 (centres undefined)	14
CCOC(=O)c1sc(NC(=O)c2ccco2)nc1C	-8

# Bioassay records: PubChem, PCMD

# These rows are one share of the data; rates above refer to the full screens.
